FEN1 inh: blocks human flap endonuclease 1 | P39748 | Recombinant FEN1 flap cleavage, fluorescence, 15 min | Potency, µM (titrated, usually from 114 µM), without a hit: at the highest dose activity change, negative = inhibition, most hits filed as inhibitors | 0.35% of 390,000 active; also: nearly all actives have a fitted effect of over 65% in size
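Recombinant FEN1 (10 nM) was preincubated with pin-transferred compounds for 15 min at room temperature, then flap DNA substrate (50 nM final) was added. Plates were read at 0 and 15 min, and normalized concentration–response data were fitted to a four-parameter Hill equation.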
GCN5L2 inh: inhibitors of human GCN5L2 histone acetyltransferase; Q92830; GCN5L2 HAT assay, ThioGlo1 CoA-SH fluorescence; Potency, µM (highest dose often 58.9 µM), for inactives: at the top dose activity change, negative = inhibition, most hits filed as inhibitors; 0.21% of 390,000 active; AID 504327
Target sequence (Q92830 whole entry, looked up): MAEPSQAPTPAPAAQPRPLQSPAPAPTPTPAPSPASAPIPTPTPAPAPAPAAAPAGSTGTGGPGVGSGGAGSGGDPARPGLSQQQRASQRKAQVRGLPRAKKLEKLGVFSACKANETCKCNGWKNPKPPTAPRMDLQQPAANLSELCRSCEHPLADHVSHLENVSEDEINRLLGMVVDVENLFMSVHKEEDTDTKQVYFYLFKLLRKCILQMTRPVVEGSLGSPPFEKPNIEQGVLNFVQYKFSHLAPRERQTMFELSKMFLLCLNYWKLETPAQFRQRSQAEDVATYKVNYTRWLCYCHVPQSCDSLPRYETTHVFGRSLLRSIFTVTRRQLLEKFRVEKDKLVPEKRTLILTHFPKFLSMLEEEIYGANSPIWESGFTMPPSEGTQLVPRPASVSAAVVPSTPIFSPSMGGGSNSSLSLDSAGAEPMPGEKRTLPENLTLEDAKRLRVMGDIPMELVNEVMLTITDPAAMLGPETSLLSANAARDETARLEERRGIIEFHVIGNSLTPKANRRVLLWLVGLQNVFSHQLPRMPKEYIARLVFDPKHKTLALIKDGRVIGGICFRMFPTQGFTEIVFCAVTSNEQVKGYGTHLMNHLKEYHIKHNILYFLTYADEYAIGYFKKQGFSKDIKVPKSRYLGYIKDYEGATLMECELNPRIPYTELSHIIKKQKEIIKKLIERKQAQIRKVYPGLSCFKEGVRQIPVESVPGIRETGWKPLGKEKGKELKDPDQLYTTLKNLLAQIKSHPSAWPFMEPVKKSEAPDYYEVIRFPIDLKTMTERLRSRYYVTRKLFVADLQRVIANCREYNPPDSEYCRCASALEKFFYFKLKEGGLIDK
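Free CoA generated was detected with ThioGlo1 (50uM) fluorescence at Ex340nm/Em540nm, read immediately and after 20 min at room temperature. Enzyme, 20 nM in HEPES pH 7.5 buffer, saw compounds 15 min before adding 75uM H3(1-25) peptide and 70uM acetyl-CoA.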
An asterisk follows results filed as active; ? = inconclusive; . = no result given; & = joins results of further samples; [ ] = remark or other dose. Calls follow the shape of the dose curve; as a rule, active = well fitted curve in the direction sought with a large enough effect; inconclusive = small, poorly fitted or top-dose-only effect, or another doubt; inactive = no such curve, though single readings can be large; an effect the other way counts as inactive or inconclusive. % is scaled to controls: 0 for no effect and ±100 for the full control effect; potency is read from the fitted curve at half-maximal effect. The list is partial; most or all hits stand in other tables.

SMILES	FEN1 inh	GCN5L2 inh
O=C(/C(=N\O)n1cncn1)c1ccc(Cl)cc1Cl	11%	-2%
Cc1cnc(C(=O)Nc2ccc(C)c(S(=O)(=O)N3CCCCCC3)c2)cn1	2%	-4%
COc1ccccc1C(=O)N1CCNC(=O)C1CC(=O)Nc1ccc(Cl)cc1 (configuration not stated)	-4%	0%
Cc1cc2oc(C(=O)N(Cc3ccc(N(C)C)cc3)CC3CCCO3)c(C)c2cc1C (configuration not stated)	18%&0%	-8%&-8%
CCC1Oc2ccc(C)cc2N(CC(=O)N(Cc2ccc(C)o2)C2CCCC2)C1=O (configuration not stated)	-5%	-5%
COCCN(C(=S)Nc1c(C)cccc1C)C(C)c1cccs1 (configuration not stated)	-19%	-6%
COc1cc2c(cc1OC)CN(C(=O)NS(=O)(=O)c1ccc(C)cc1)CC2	-5%	-1%
CCOc1cc(C2/C(=C(/O)c3ccc(S(=O)(=O)N4CCCCC4)cc3)C(=O)C(=O)N2CCOC)ccc1O (configuration not stated)	-2%	-8%
COC(=O)c1ccccc1NC(=O)CN1CCC(n2nnc3cc(F)ccc32)CC1	10%	-17%
CNc1ncc(C(=O)c2ccc(F)cc2)s1	-10%	-2%
Cc1c(C(=O)OCC(=O)N2CC(C)OC(C)C2)oc2ccc(Br)cc12 (configuration not stated)	13%	-7%
COc1ccc(NC(=O)C2CCC2)cc1S(=O)(=O)Nc1cc(C)ccc1Br	-10%	-8%
CCOc1ccc(C2CC(=O)N(c3cccc(F)c3)C3=C2C(=O)OC3)cc1 (configuration not stated)	10%	-4%
COc1ccc(NC(=O)/C=C/C(=O)O)cc1Cl	-15%	-7%
COc1cc2c(cc1OC)C(c1ccc(O)cc1)NCC2 (configuration not stated)	-3%	-9%
CCCn1c(NC(=O)c2ccco2)nc2ccccc21	8%	-9%
Cc1ccc2c(CC(=O)NC3CCS(=O)(=O)C3)coc2c1C (configuration not stated)	-2%	-3%
Cc1ccc(S(=O)(=O)c2cn(Cc3ccccc3)c3cc(N4CCCC4)c(F)cc3c2=O)cc1C	0%	-6%
CC(C)OC(=O)CSc1nnc(-c2cnccn2)n1-c1ccccc1	1%	0%
CCN(CC)CCCn1c2c(c(SCC(=O)Nc3ccc4c(c3)OCO4)nc1=O)CCC2	1%	1%

Some of the entries so far, as labelled records:
canonical_smiles: COC(=O)c1ccccc1NC(=O)CN1CCC(n2nnc3cc(F)ccc32)CC1
  FEN1 inh: 10%
  GCN5L2 inh: -17%
canonical_smiles: COc1cc2c(cc1OC)CN(C(=O)NS(=O)(=O)c1ccc(C)cc1)CC2
  FEN1 inh: -5%
  GCN5L2 inh: -1%
canonical_smiles: CC(C)OC(=O)CSc1nnc(-c2cnccn2)n1-c1ccccc1
  FEN1 inh: 1%
  GCN5L2 inh: 0%
canonical_smiles: COc1ccc(NC(=O)C2CCC2)cc1S(=O)(=O)Nc1cc(C)ccc1Br
  FEN1 inh: -10%
  GCN5L2 inh: -8%

(listing goes on)
SMILES	FEN1 inh	GCN5L2 inh
O=C(NCCCN1CCCC1=O)c1cccc(S(=O)(=O)Nc2ccccc2Cl)c1	0%	-10%
CCOc1ccccc1CN1CCNC(=O)C1CC(=O)NCc1nccn1CC (configuration not stated)	8%	0%
Cc1cc(C)c(NC(=O)CSc2nc3ncc(Cl)cc3[nH]2)c(C)c1	-15%	-5%
C(#Cc1ccc2c(c1)COc1c3ccccc3nn1-2)c1ccccc1	-20%	-26%
CCOC(=O)C(NC(=O)c1ccc(F)cc1)(Nc1sc2c(c1C(N)=O)CCC2)C(F)(F)F (configuration not stated)	-6%	-7%
C[C@@H](CN1c2ccccc2Sc2ccccc21)N(C)C	.	-1%[21.4 µM]
c1ccc(-c2ncnc3nc4n(c23)CCC4)cc1	-7%	.
Cc1cc(Cl)ccc1OCC(=O)N1CC(C)CC(C)C1 (configuration not stated)	-16%	-2%
O=C(Cc1csc(NC(=O)Nc2ccc(Cl)cc2)n1)NCc1ccccn1	-3%	3%
Cc1ccc(OCC(=O)Nc2ccc(C(=O)O)cc2NC(=O)COc2ccc(C)c(C)c2)cc1C	16%	0%
Cn1c(NC2CCCCC2)c(N=O)c(=O)n(C)c1=O	-6%	-1%
COc1cccc(CN2CCNC(=O)C2CC(=O)N2CCCCO2)c1OC (configuration not stated)	18%	5%
Cn1c2c(c(=O)n(C)c1=O)NC1(N2)C(=O)Nc2ccccc21 (configuration not stated)	-13%	16%
CC[C@H](C)[C@H]1O[C@]2(CC[C@@H]1C)C[C@@H]1C[C@@H](CC=C(C)[C@@H](O[C@H]3C[C@H](OC)[C@@H](O[C@H]4C[C@H](OC)[C@@H](O)[C@H](C)O4)[C@H](C)O3)[C@@H](C)C=CC=C3CO[C@@H]4[C@H](O)C(C)=C[C@@H](C(=O)O1)[C@]34O)O2	-1%	.
Cc1c(C)n(C(=O)CN2CCC(C(N)=O)CC2)c2ccccc12	-1%	.
O=C(CN1CCN(C(=O)C2CCCO2)CC1)Nc1cc(C(F)(F)F)ccc1Cl (configuration not stated)	-2%	?
O=C(O)c1ccc([N+](=O)[O-])c(CS(=O)(=O)c2ccc(Cl)cc2)c1	4%	-10%
C/C=C(\C)CN1CCc2cc(OC)c(OC)cc2C1	-16%	-14%
O=C(O)CC1(CC(=O)NCc2csc(-c3cccs3)n2)CCCCC1	19%	-9%
CC1=CC(C)(C)N2C(=O)C3(C(C#N)=C(N)Oc4cc(C)oc(=O)c43)c3cccc1c32 (configuration not stated)	6%	-11%

Shown in markdown: part of the list above
| Compound | FEN1 inh | GCN5L2 inh |
| --- | --- | --- |
| c1ccc(-c2ncnc3nc4n(c23)CCC4)cc1 | -7% | . |
| O=C(Cc1csc(NC(=O)Nc2ccc(Cl)cc2)n1)NCc1ccccn1 | -3% | 3% |

The listing continues:
SMILES	FEN1 inh	GCN5L2 inh
COc1ccc(Oc2nc(Oc3ccc(OC)cc3)nc(Oc3ccc(OC)cc3)n2)cc1	-8%	-18%
CCCn1c(=N)c(C(=O)NCc2ccccc2)cc2c(=O)n3cccc(C)c3nc21	-31%	1%
O=C(Nc1ccccc1)c1cc2ccccc2[nH]1	1%	0%
CCOC(=O)c1c(S(=O)(=O)NCCCc2ccco2)c(C)n(C)c1C	19%	-1%
CCN1CCN(C(c2ccccc2Cl)c2c(O)cc(C)n(Cc3ccco3)c2=O)CC1 (configuration not stated)	-15%	-7%
CC(OC(=O)C1CC(=O)N(Cc2ccccc2)C1)C(=O)Nc1ccccc1[N+](=O)[O-] (configuration not stated)	5%	-2%
Cc1cccc(C)c1NC(=O)C1(N2CCN(C(=O)c3ccco3)CC2)CCCCC1	-6%	-1%
O=C1NC[C@H](c2ccccc2)OC(=O)[C@H](Cc2ccc(F)cc2)CC/C=C/C[C@@H]1CC(=O)N(CCO)Cc1ccccc1	-19%	-9%
COc1ccccc1CC(=O)Nc1ccc(F)cc1F	-1%	-1%
O=C(CSc1nnc(CNC(=O)c2ccccc2F)o1)Nc1ccc2c(c1)OCO2	-2%	-3%
Cc1ccc(-c2nnn3c2nc(NCC(C)c2ccccc2)c2ccccc23)cc1 (configuration not stated)	0%	-4%
COc1ccc(-n2c(C)cc3cc(OC(C)=O)ccc32)cc1	-17%	-2%
Cc1cccn2c(=O)c3cc(C(=O)NCCN4CCOCC4)n(C)c3nc12	4%	-6%
COC(=O)c1[nH]c2ccc(Cl)cc2c1NC(=O)CN1CCC(C(N)=O)CC1	3%	-3%
COc1ccc(S(=O)(=O)n2nc(-c3ccco3)nc2NCc2ccc(OC)c(OC)c2)cc1	-13%	-14%
Cc1ccc(C(=O)NC2CCN(S(=O)(=O)c3ccccc3)CC2)cc1	3%	-1%
c1ccc(C[C@H]2CN=C(Nc3ccccc3)N2CC2CCCCCC2)cc1	12%	2%
COc1ccccc1OCCCCn1c(C(C)O)nc2ccccc21 (configuration not stated)	-15%	-7%
CCOC(=O)c1nn(-c2cccc(Cl)c2)c2nc(Nc3ccccc3)cc(=O)n12	-2%	0%
O=C(N/N=C/c1ccc(OC(F)F)cc1OC(F)F)c1cccc(S(=O)(=O)N2CCOCC2)c1	-9%	-9%
Cc1nc(-c2cccc(Br)c2)ccc1C(=O)O	5%	-9%
C=CCn1c(=S)[nH]c2cc(C(=O)Nc3ccc(F)cc3)ccc2c1=O	-8%	-4%
Nc1ccc(C(=O)NNC(=O)C2COc3ccccc3O2)cc1[N+](=O)[O-] (configuration not stated)	-5%	-17%
CC(C)CN1C=C2C(=O)C(C)(OC(=O)C3CCCC3)C(=O)C=C2C=C1c1ccsc1 (configuration not stated)	1%	-16%
COc1ccccc1NS(=O)(=O)c1ccccc1C#N	-9%	-1%
Cc1cccc(NC(=O)Cn2cc(C(=O)C3CC3)c3ccccc32)c1	3%	1%
COc1cccc(-n2cnc3sc(C)cc3c2=O)c1	-2%	-4%
CCc1c(C)nc2cc(-c3ccc(OC)c(OC)c3)nn2c1N1CCC(C)CC1	4%	-11%
O=C(CN1c2cccc3cccc(c23)S1(=O)=O)Nc1ccccc1F	-3%	-3%
Cc1nn(Cc2c(Cl)cccc2Cl)c(Cl)c1/C=N/NC(=O)c1cccnc1	-23%	-3%
O=C(NCc1ccccc1Br)c1ccc2nc(N3CCCCC3)sc2c1	-5%	-3%
CC1=C(C(=O)OC(C)C)C(c2cccs2)NC(=O)N1 (configuration not stated)	17%	-8%
CC(=O)OCC1=C(C(=O)O)N2C(=O)C(NC(=O)CCn3nc(C(F)(F)F)c(Br)c3C3CC3)C2SC1 (configuration not stated)	-7%	-1%
COc1cccc(CC(=O)Nc2c(C(=O)N3CCN(c4ccccc4)CC3)oc3ccccc23)c1	-2%	-5%
CCCN(C(=O)c1nc2nccc(C)n2n1)c1c(N)n(Cc2ccccc2)c(=O)[nH]c1=O	1%	-4%
COc1ccc(CNC(=O)Cn2nc(Cc3cccnc3)c3ccccc3c2=O)cc1	-9%	-1%
CN(CCOC(=O)c1ccccc1)Cc1ccccc1	3%	-3%
CN(C)S(=O)(=O)c1ccc(N2CCCC2)c(C(=O)Nc2nc(-c3ccc(F)c(F)c3)cs2)c1	17%	-8%
COc1ccc(CCNc2ncnc3c2oc2ccccc23)cc1OC	-20%	-9%
COCCNC(=O)CCSCc1ccccc1F	-13%	3%
Nc1[nH]nc2nc(N3CCOCC3)nc(-c3ccccc3)c12	10%	-18%
CC(C)c1ccc(-c2cc(C(=O)N3N=C(C(F)F)CC3(O)C(F)F)c3ccccc3n2)cc1 (configuration not stated)	?	-15%
Cc1cccc(NC(=O)c2oc3c(c2C)-c2[nH]ncc2CC3)c1C	14%	-11%
O=C(C1CCC(=O)N1Cc1ccccc1Cl)N1CCN(c2ccc(F)cc2)CC1 (configuration not stated)	4%	?
NC(=O)N/N=C/c1c(F)c(F)c(F)c(F)c1F	1%	1%
N#C/C(=C\c1cn(-c2ccccc2)nc1-c1ccccc1)S(=O)(=O)c1ccccc1	4%	-3%
Cc1cc(-c2ccccc2)c(C#N)c(SCC(N)=O)n1	3%	-7%
Nc1nc2ccccc2n1/N=C/c1ccc2c(c1)OCO2	-26%	-1%
CCC(OC(=O)c1nsc(Cl)c1Cl)C(=O)NCCOC (configuration not stated)	7%	0%
COc1ccc(S(=O)(=O)N2CCOCC2)cc1OC	-2%	1%
Cc1ccc(S(=O)(=O)NC2CC2)s1	-3%	-15%
COc1ccccc1OCC(=O)N(Cc1ccco1)Cc1ccccc1F	-7%	-2%
CC1CC(C)(C)NC(=S)N1CCC(=O)N1c2ccccc2CC1C (configuration not stated)	16%	-7%
COc1ccccc1CNC(=O)c1ccc2c(c1)nc(C)n2-c1cccc(C)c1	-15%	-3%
Cn1c(=O)n(C)c2cc(S(=O)(=O)N3CCCCC3)ccc21	-12%	-1%
CC(=O)N1CCc2cc(S(=O)(=O)NC(Cc3ccccc3)C(=O)Nc3cccc(C)c3)ccc21 (configuration not stated)	0%	-7%
Cc1ccc(S(C)(=O)=O)cc1C(=O)OCC(=O)N1CCCC1=O	2%	3%
COc1ccc(OCC(O)CNC(=O)c2ccc(Br)cc2)cc1 (configuration not stated)	-8%	8%
COc1cc2c(cc1NC(=O)CSc1nnc(Cc3cccs3)n1Cc1ccco1)oc1ccccc12	-1%	-13%
CC(/C=C/c1ccc2c(c1)OCO2)=N/NC(=O)COc1ccc(C)cc1	-2%	-10%
O=C(N/C(=C/c1ccccc1)C(=O)N1CCOCC1)c1ccc([N+](=O)[O-])cc1	10%	-1%
O=C(c1cc(-c2ccc(Cl)c(Cl)c2)on1)N1CCCCC1	-3%	-3%
Cc1cc(NS(=O)(=O)c2ccc(OCCNS(C)(=O)=O)cc2)no1	0%	-2%

Given with bars between the fields: entries from further up.
SMILES | FEN1 inh | GCN5L2 inh
CC(C)c1ccc(-c2cc(C(=O)N3N=C(C(F)F)CC3(O)C(F)F)c3ccccc3n2)cc1 (configuration not stated) | ? | -15%
Cc1cccc(NC(=O)c2oc3c(c2C)-c2[nH]ncc2CC3)c1C | 14% | -11%
O=C(C1CCC(=O)N1Cc1ccccc1Cl)N1CCN(c2ccc(F)cc2)CC1 (configuration not stated) | 4% | ?
NC(=O)N/N=C/c1c(F)c(F)c(F)c(F)c1F | 1% | 1%

Bioassay records as filed in PubChem BioAssay.
